Screening data: PubChem, National Center for Advancing Translational Sciences (NCATS)
D2 PAM: Beta-Arrestin HTS for Positive Allosteric Modulators of the Human D2 Dopamine Receptor: Potentiators; DiscoveRx D2 beta-arrestin cells, luminescence, 90 min; 100% = 57 uM dopamine signal; potentiation, % (test concentration not listed); 360,000 compounds, 0.23% hits; active = potentiation of 50% or more; inconclusive = 30% to 50%; inactive = 30% or less;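 also: compound concentration not given in the record; tested on top of an EC20 dose of dopamine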
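D2 cells co-treated with compound plus 50 nM dopamine (EC20) for 90 min at 37 deg C to detect potentiation. Beta-arrestin recruitment was read as enzyme-fragment luminescence after 1 h at ambient temperature. Full response was set by 57 uM dopamine.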
gsp ag: qHTS for Agonist of gsp, the Etiologic Mutation Responsible for Fibrous Dysplasia/McCune-Albright Syndrome: qHTS | 340,000 compounds, 0.13% hits | Potency, µM (series often up to 76.9 µM), without a hit: at the highest dose activation (cAMP increase), actives largely listed as activators | AID 624287, 2012 | gsp mutant cells, cAMP HTRF, 30 min; control for the full effect not named in the record; active = well fitted activation curve with a large enough effect; inconclusive = small, poorly fitted or top-dose-only effect, or another doubt; inactive = no such curve, though single readings can be large or run the other way; cell line not stated here;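 also: phosphodiesterase inhibitor Ro 20-1724 added with compounds to block cAMP breakdown; potency is read from the fitted curve at half-maximal effect; nearly all actives have a fitted effect of over 60% in size; about a fifth of the inactives were tested at one dose only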
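Cells stably selected in G418 were plated at 2000/well, grown 16-24 hr, then given compounds in DMSO with the PDE inhibitor […] (300 uM solution added) for 30 min at 37C; cAMP was read by HTRF.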
gsp antagonist: qHTS for Antagonists of gsp, the Etiologic Mutation Responsible for Fibrous Dysplasia/McCune-Albright Syndrome: qHTS | 340,000 compounds, 0.4% hits | Potency, µM (doses to about 76.9 µM), inactives show top-dose activity change, negative = inhibition, actives largely listed as inhibitors | gsp-mutant cells, cAMP HTRF, 30 min; control for the full effect not named in the record; active = falling curve of any shape with a large fitted effect; inconclusive = falling curve, mostly with a smaller effect; inactive = flat or rising curve; cell line not stated here;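 also: intracellular cAMP measured with PDE inhibitor Ro 20-1724 present during compound exposure; potency is read from the fitted curve at half-maximal effect; % is scaled to controls: 0 for no effect and ±100 for the full control effect; nearly all actives have a fitted effect of over 65% in size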
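HTRF cAMP measurement after 30 min RT detection following 30 min, 37C compound treatment alongside […] (added as 300 uM solution) in G418-selected cells seeded at 2000/well and grown 16–24 h.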
Sfp PPTase inh: qHTS Assay for Inhibitors of Bacillus subtilis Sfp phosphopantetheinyl transferase (PPTase); 4'-phosphopantetheinyl transferase ffp (Bacillus subtilis), Q9F4F7; 310,000 compounds, 3.5% hits; AID 1490, 2009; Biochemical Sfp PPTase activity, qHTS; Potency, µM, for the others: max response, negative = inhibition, hits mostly inhibitors; active = well fitted inhibition curve with a large enough effect; inconclusive = small, poorly fitted or top-dose-only effect, or another doubt; inactive = no such curve, though single readings can be large or run the other way;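 also: the enzyme is Sfp with the accession as filed and its product quenches rhodamine fluorescence; potency is read from the fitted curve at half-maximal effect; 0% = enzyme reaction without inhibitor and -100% = no enzyme wells; top concentration of the series not given in the record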
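With Hepes-Na pH 7.6 buffer containing 10 mM MgCl2, Sfp (15 nM) modified BHQ-2-YbbR (12.5 uM) using rhodamine-CoA (5 uM). Two reads 30 minutes apart at 525/598 nm yielded each well's rate.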
ClpP mod: qHTS Assay for Activators of ClpP; purified B. subtilis ClpP, FRET peptide cleavage, 20 min; ATP-dependent Clp protease proteolytic subunit (Bacillus subtilis (strain 168)), P80244; 340,000 compounds, 1.9% hits; Potency, µM (doses to about 57.5 µM), without a hit: at the highest dose activity change, negative = active; active = well fitted falling curve with a large enough effect; inconclusive = small, poorly fitted or top-dose-only effect; inactive = no such curve, though single readings can be large or run the other way; also: potency is read from the fitted curve at half-maximal effect; the source files actives as falling curves though it sought activators and does not explain the sign; nearly all actives have a fitted effect of over 65% in size; many hits overshoot -100%
Target sequence (P80244 whole entry, looked up): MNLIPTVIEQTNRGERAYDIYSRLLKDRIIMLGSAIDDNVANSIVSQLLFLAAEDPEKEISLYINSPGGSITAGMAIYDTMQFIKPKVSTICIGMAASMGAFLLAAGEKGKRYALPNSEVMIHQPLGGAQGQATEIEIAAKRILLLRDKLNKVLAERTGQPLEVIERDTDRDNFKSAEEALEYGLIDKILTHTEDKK
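Buffer: 100 mM Tris/HCl pH8, 100 mM KCl, 0.05% low protease BSA, 2.5% glycerol, 0.01% Tween-20. ClpP 10 microg/mL final; 20 min RT; delta FRET normalized to ADEP and DMSO controls.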
TRPV1 potentiator: HTS Assay for Compounds that Act as Potentiators of the Vanilloid Receptor 1 | 320,000 compounds, 0.02% hits | TRPV1-expressing cells, Fluo-8 calcium influx, capsaicin EC20 potentiation; host cell line not named in the record; control for the full effect not named in the record | Transient receptor potential cation channel subfamily V member 1 (Homo sapiens), Q8NER1 | potentiation, % at 8.33 µM; active means potentiation above 80%; inconclusive means 30% to 80%; inactive means below 30%; also: 0% is about no effect
Target sequence (Q8NER1 whole entry, looked up): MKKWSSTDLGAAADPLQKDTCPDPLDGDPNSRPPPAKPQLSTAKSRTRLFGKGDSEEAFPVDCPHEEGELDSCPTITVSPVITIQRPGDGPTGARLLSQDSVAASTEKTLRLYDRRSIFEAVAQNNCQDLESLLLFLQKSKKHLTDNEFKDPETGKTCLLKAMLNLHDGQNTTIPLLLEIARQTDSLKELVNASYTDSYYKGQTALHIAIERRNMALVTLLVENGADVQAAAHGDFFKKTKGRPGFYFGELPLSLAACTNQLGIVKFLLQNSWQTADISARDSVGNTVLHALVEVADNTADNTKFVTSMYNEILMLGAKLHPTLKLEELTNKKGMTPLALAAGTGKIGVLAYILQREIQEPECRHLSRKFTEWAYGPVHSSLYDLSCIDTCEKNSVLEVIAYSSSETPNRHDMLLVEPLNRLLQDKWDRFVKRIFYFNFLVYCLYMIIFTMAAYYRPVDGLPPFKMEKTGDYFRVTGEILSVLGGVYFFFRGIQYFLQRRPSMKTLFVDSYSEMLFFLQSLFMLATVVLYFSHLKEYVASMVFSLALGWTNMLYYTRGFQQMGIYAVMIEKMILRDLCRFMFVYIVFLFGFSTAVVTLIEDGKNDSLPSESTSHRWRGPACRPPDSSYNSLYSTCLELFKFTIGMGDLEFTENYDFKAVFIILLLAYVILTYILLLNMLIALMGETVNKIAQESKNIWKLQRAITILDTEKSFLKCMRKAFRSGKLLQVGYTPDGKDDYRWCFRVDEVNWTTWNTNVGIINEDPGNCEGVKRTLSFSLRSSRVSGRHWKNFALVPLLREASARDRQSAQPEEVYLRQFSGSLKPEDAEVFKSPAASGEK
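TRPV1-expressing cells were cultured overnight at 35.5C and loaded with Fluo-8 calcium dye for 40 to 90 min at room temperature. After a 10 s baseline, compound was added and calcium influx was read kinetically for 3 min (ex 480/em 520 nm).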
Menin MLL FP FL: qHTS Assay for Inhibitors Targeting the Menin-MLL Interaction in MLL Related Leukemias: Competition With Fluorescein Labeled MLL-derived Peptide. Fluorescence polarization, fluorescein-MLL peptide displacement from menin. FP activity change, % at 61.4 µM. 290,000 tested, under 10 active. AID 1766, 2009; inconclusive = falling polarisation curve, or a change in total fluorescence; inactive = total fluorescence flat and polarisation flat or rising; no compound was filed as active; the % refers to the polarisation; negative = inhibition;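 also: % of control where 0% means no effect; inhibitors lower the polarisation; unlabelled MLL peptide was the positive control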
Active calls of the source: *; ? = inconclusive; · = not tested or not shown; & = joins results of further samples; [ ] = remark or other dose.

SMILES	D2 PAM	gsp ag	gsp antagonist	Sfp PPTase inh	ClpP mod	TRPV1 potentiator	Menin MLL FP FL
COc1ccccc1NC(=O)CCNC(=O)c1ccc(C)cc1	-4	?	-6%	22%	1.3%	-1	-3.3
CCN(CC)c1ccc(NC(=S)Nc2ccc(F)cc2)cc1	-6	-1%[15.4 µM]	·	45µM*	·	-12	6.6
Cc1ccc(-c2nn(-c3ccccc3)cc2C(=O)NCC2CCCO2)cc1 (stereo unspecified)	-30	-29%	-20%	·	-3.1%	-24	·
Cc1ccc(-n2nc3c(=O)n(CCCC(=O)NC4CCC(C)CC4)nc(C)c3c2C)cc1 (stereo unspecified)	-8	?	-2%	10%	-2.6%	7	3.1
COc1ccc(S(=O)(=O)NC2CC3CCC2C3)cc1Cl (stereo unspecified)	-1	0%	-4%	20%	-1.4%	-6	-0.6
O=C(O)Cn1nnc(-c2cccs2)n1	-13	?	3%	32%[activator]	-1.6%	20	-1.0
COc1ccccc1CNC(=O)Cc1ccc(C)cc1	-6	0%	18%	5%	-0.2%	1	0.0
Cc1ccc(N=Nc2c(N)[nH]n3c(=O)cc(C)nc23)cc1	-26	-42%[inhibitor]	-12%	1%	3.4%	4	0.9
Cc1cc(NC(=O)CSc2nc(-c3ccccc3Cl)nc3c2c(=O)n(C)c(=O)n3C)no1	-1	-14%	21%	8%	·	4	-2.3
CCOC(=O)N1CCN(Cc2nc(-c3ccc(Cl)cc3)no2)CC1	-2	-7%	2%	9%	-0.4%	-7	3.9
Cc1cc(C(=O)Cn2cnc3ccccc3c2=O)c(C)n1C1CC1	-20	-3%[15.4 µM]	-13%	·	-6.7%	-5	·
O=C(Nc1cc(S(=O)(=O)Nc2ccc(Cl)cc2)ccc1N1CCCCC1)c1ccc(F)cc1Cl	-11	-10%	-5%	?	-3.5%	2	0.0
COc1ccc(C(C(=O)NC2CCCCC2)N(C(=O)c2cccs2)c2ccc3c(c2)OCO3)cc1 (stereo unspecified)	-18	9%	4%	23%	1.6%	-3	1.7
C=C1CCN([C@@H](Cc2ccccc2)C(=O)NCc2ccccc2)S(=O)(=O)c2ccccc21	-12	-66%[inhibitor]	-5%	·	1.3%	·	·
NNC(=O)CCN1CCCCC1	-13	-15%	5%	4%	0.0%	-10	-2.6
COc1ccccc1/C=C1\SC(=S)N(CCC(=O)Nc2cc(C)on2)C1=O	-4	10%	-10%	-22%	·	-2	?
O=C(CN1C(=O)c2ccccc2C1=O)OCC(=O)N1CCCCC1	-9	8%[15.4 µM]	-1%	·	-2.1%	·	·
COc1cc(C(CC(=O)N2CCCC2)c2c(OC)cc(OC)c3c(-c4ccccc4)cc(=O)oc23)cc(OC)c1OC (stereo unspecified)	-20	·	13%	-25%&-18%	-1.8%	-3	8.8&-0.7
NC(=O)C1CCN(C(=O)CCC(=O)N2CCOc3ccc(Cl)cc32)CC1	-7	-21%	5%	8%	-0.8%	-18	-0.6
CC(C)c1ccc(CNc2ccc3c(c2)ncn3C)cc1	-3	-8%	-12%	-11%	3.7%	-3	1.2

The closing two compounds of the part above are carried over, then new ones follow.
SMILES	D2 PAM	gsp ag	gsp antagonist	Sfp PPTase inh	ClpP mod	TRPV1 potentiator	Menin MLL FP FL
NC(=O)C1CCN(C(=O)CCC(=O)N2CCOc3ccc(Cl)cc32)CC1	-7	-21%	5%	8%	-0.8%	-18	-0.6
CC(C)c1ccc(CNc2ccc3c(c2)ncn3C)cc1	-3	-8%	-12%	-11%	3.7%	-3	1.2
CCn1c(=O)c2ccccc2n(CC(=O)NC2CCCCC2)c1=O	0	-5%[15.4 µM]	8%	-1%	·	-21	-6.5
CCCc1ccc2oc(C(=O)N(C)CCn3ccnc3C)c(C)c2c1	-25	-7%	-2%	3%	0.6%	-8	-2.5
CCOC(=O)c1c(C)[nH]c(C)c1S(=O)(=O)N(C)CC(=O)NCc1ccc(C)cc1	-6	14%	6%	16%	-1.0%&-11%	3	-7.3
O=c1c2ccccc2[nH]c(=S)n1CCCN1CCN(C2CCCCC2)CC1	-31	-15%	-7%	5%	0.6%	-6	-0.8
CCCc1cc(=O)[nH]c(SCC(=O)Nc2cccc3ccccc23)n1	0	-4%	-6%	12%	·	9	3.6
COc1cccc(NC(=O)Cn2c3ccc(F)cc3c3nc4n(c(=O)c32)CCCS4)c1	-6	29%	-19%	11%	4.3%	6	·
COc1cc(CCC(C)=O)ccc1OC(=O)c1c(F)cccc1Cl	-5	7%[15.4 µM]	-14%	4%	·	-7	-0.1
Cc1ccc(C2(c3ccc(C)cc3)CC2C(=O)NC(C)C)cc1 (stereo unspecified)	-3	-1%	-12%	2%	·	-6	-0.3
Cc1ccc(-c2c(C)n([O-])c3c([n+]2=O)CCCC3)o1	1	-8%	3%	24%	-1.4%	-4	1.0
CCc1c2ccccc2nn1-c1ccccc1C(=O)C(C)=O	-7	-13%	1%	11%	·	-17	-0.5
CN(C(=O)CSc1nnc(-c2cccs2)o1)C1CCS(=O)(=O)C1 (stereo unspecified)	-1	-30%[inhibitor]	9%	-11%	·	3	1.5
CCOC(=O)C1C(c2cccc([N+](=O)[O-])c2)C2C(=O)NN=C2CC1(C)O (stereo unspecified)	-3	-62%[inhibitor]	6%	15%	·	8	0.4
O=C(Nc1ccc(CN2CCOCC2)cc1)c1ccc(Cl)cc1	-3	3%	-1%	17%	-0.1%	-10	0.9
O=C(COc1ccccc1)NNC(=O)c1cccs1	3	-3%	7%	-3%	1.8%	-2	1.2
COc1ccc(C(=O)NNC(=S)NC(=O)c2ccco2)cc1	-23	-9%	-6%	16%	0.5%	12	4.6
Cc1ccc(C(=O)Nc2ccsc2C(=O)O)cc1	-1	-8%	?	12%	-2.3%	18	-12
CC(C)(C)NC(=S)N1CCC(C(=O)c2ccc(Cl)cc2)CC1	-20	-6%[15.4 µM]	2%	5%	-4.4%	-3	0.1
CS(=O)(=O)N(CC(=O)NC1CC1)c1cccc(F)c1	-11	-42%[inhibitor]	5%	-12%	1.3%	0	-3.6
CCOC(=O)c1cn[nH]c1NC(=S)Nc1ccc(Cl)cc1	3	8%[15.4 µM]	-15%	-2%	-0.3%	1	0.0
O=S(=O)(c1ccc(OCC(O)CN2CCN(c3ccccc3)CC2)cc1)N1CCOCC1 (stereo unspecified)	13	31%	4%	15%	-2.3%	0	-0.3
CCCc1n[nH]c(=O)[nH]1	-12	-22%	3%	17%	-0.8%	7	-0.4
Cc1c(Cl)cccc1NC(=O)CSc1nncn1-c1ccccn1	1	26%	10%	8%	·	-23	-6.5
O=C(Nc1ccccc1N1CCN(c2ccccc2)CC1)C12CC3CC(CC(C3)C1)C2	7	-3%	9%	-12%	-2.0%	?	1.8
CSCCC1NC2(C(=O)Nc3c(Cl)cccc32)[C@@H]2C(=O)N(C3CCCC3)C(=O)[C@H]12 (stereo partly specified)	3	-22%	0%	22%	1.6%	-15	6.6
O=C(Cn1cccc1C(=O)c1ccccc1)NCCCN1CCc2ccccc2C1	-23	-37%	8%	14%	1.4%	5	-4.0
OCC[C@H]1C[C@H](O)[C@@H](O)[C@]2(Cc3ccccc3CO2)O1	-2	2%	18%	·	1.7%	28	·
Cc1cc(NC(=O)c2cc(C(C)C)on2)nn1Cc1ccc(Cl)cc1	-4	13%	-3%	27%	-2.4%	·	1.7
Cc1c(C(=O)NN2CCOCC2)cccc1[N+](=O)[O-]	-7	-3%[15.4 µM]	8%	·	1.3%	·	·
CCOC(=O)c1ccc(NC(=O)CN2CCN(C(=O)C3CCCO3)CC2)cc1 (stereo unspecified)	-11	-2%[15.4 µM]	11%	13%	0.9%	-1	2.6
CCOC(=O)c1ccc(NC(=O)Cn2nnc(-c3ccccc3)n2)cc1	1	-10%	9%	-13%	-1.0%	10	1.8
Cc1ccc(NC(=O)CN(C)C(=O)Cc2ccccc2F)cc1	-7	-4%	7%	20%	·	-1	2.4
N#CC1C=Cc2c(ccc3ccccc23)N1C(=O)c1ccccc1 (stereo unspecified)	-9	-8%	5%	·	-29%	·	·
O=C(CN1C(=O)/C(=C/c2ccccc2)SC1=S)NC1C=CS(=O)(=O)C1 (stereo unspecified)	-4	-11%	-25%	-2%	2.7%	9	·
CCOc1ccc(C(=O)CCC(=O)Nc2cc(C)ccn2)cc1	8	-8%	-7%	·	164%	4	·
CCOc1ccc(-c2nc(S(=O)(=O)c3ccccc3)c(N3CCOCC3)o2)cc1	-32	7%[15.4 µM]	-29%	?	·	-3	9.2
O=C(COC(=O)c1cc(S(=O)(=O)NCc2ccccc2)ccc1O)NCc1ccccc1	-4	?	6%	1%	?	3	0.1
CCOCCCn1c(SCC(=O)/C(C#N)=C(\C)N)nc2ccccc2c1=O	-11	-1%	4%	3%	0.0%	9	2.6
C=CCN1C(=O)/C(=C/C(=O)OC)S/C1=N\NC(=O)c1ccccc1	-8	9%[15.4 µM]	8%	-17%	-0.2%	12	0.6
COc1ccccc1C(=O)NC1CC2CCC(C1)N2Cc1ccccc1 (stereo unspecified)	-5	-10%	2%	-7%	-0.6%	-10	-6.3
O=C(c1ccccc1)C(Sc1ncn[nH]1)c1ccccc1 (stereo unspecified)	-14	0%	-1%	79µM*	-2.3%	-3	-0.7
COc1ccc(-c2cc3ccccc3nc2N)cc1OC	-14	12%	-16%	4%	4.3%	14	-0.8
CC(C)c1ccc(NC2CCCN(C(=O)CN3CCCCC3=O)C2)cc1 (stereo unspecified)	-13	-35%[inhibitor]	·	·	0.6%	·	·
O=C1CC(c2ccccc2)(c2ccccc2)c2ccccc21	-5	4%[15.4 µM]	-21%	·	32µM*	·	·
